BmaI1: BmaI1 acyl-homoserine lactone synthase inhibition – biochemical, fluorescence intensity, with counterscreen (AID 720554); BmaI1 enzyme assay, fluorescence intensity; stronger effect = higher value; test concentration not given here; a few actives read low; strong numbers were not always called active; inhibition, %; hit rate 0.4% among 12,000;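 active = both replicates within 2 robust z-scores of the inhibited control and a quiet counterscreen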;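 note: 0% = uninhibited enzyme and 100% = inhibited control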
BmaI1 counterscreen: also measured in BmaI1; calls as there; inhibition, %; measured here: counterscreen; design of the counterscreen not given here;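 first of two replicates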
* marks the source's active call; other numbers are inactive results; & = joins results of further samples. The list is partial; rates above refer to the full screens.

SMILES,BmaI1,BmaI1 counterscreen
CC(C(=O)O)c1ccc(-c2ccccc2)c(F)c1 (configuration not stated),-3&-2,8&6
CCCCC(=O)OC1(C(=O)CO)CCC2C3CCC4=CC(=O)CCC4(C)C3C(O)CC21C (configuration not stated),-4,9
Cc1cc(C(=O)COc2ccc3oc4ccccc4c3c2)c(C)n1CC1CCCO1 (configuration not stated),6,-4
O=C(Cc1c(Cl)cccc1Cl)NC1=NCCS1,1,-2
CC1=NN(C2CCS(=O)(=O)C2)C(=O)C12Cc1c(C)nn(-c3ccccc3)c1N1CCCCC12 (configuration not stated),20,12
COc1ccc(CN(C)C(=O)c2cc(C)on2)c(OC)c1,0,6
Cc1ccc(-c2cc(C(=O)Nc3cccc(C#N)c3)c3ccccc3n2)o1,12,8
CCOC(=O)c1c(C)oc2c1c(C=NC1CCS(=O)(=O)C1)c(O)c1ccccc12 (configuration not stated),8,13
O=C(/C=C/c1ccco1)OC(C(=O)Nc1ccc(F)cc1)c1ccccc1 (configuration not stated),30,8
O=C(CSc1ccccc1C(=O)N(Cc1ccncc1)Cc1cccnc1)N1CCCC1,30,15
CC(C)C(=O)Nc1ccccc1C(=O)OCC(=O)c1ccc2c(c1)OCCO2,8,3
NC1CCC2CCCCC2C1 (configuration not stated),10,3
Cc1nc(C)c(-c2nnco2)cc1C(=O)NN,-106,-69
CCc1oc2ccccc2c1/C=N/O,26,16
O=c1c(Br)c(N2CCc3ccccc3C2)cnn1-c1ccccc1,12,0
C/C(=C\C(=O)Nc1ccc(Cl)cc1)N1CCN(Cc2ccccc2)CC1,8,14
Cc1nc2cc(NS(=O)(=O)c3ccccc3)ccc2n1-c1ccccc1,10,6
CC1(c2ccc(OC(F)F)cc2)NC(=O)N(/N=C/c2ccncc2)C1=O (configuration not stated),12,10
O=C(Cc1coc2cc3c(cc12)CCC3)N1CCc2ccccc21,8,16
CC(=O)Nc1ccc2c(CSc3nnc(-c4ccco4)n3C)cc(=O)oc2c1,9,-2
CC/C(C)=N/Nc1ccc(S(=O)(=O)N(CC)CC)cn1,60,22
O=C(CSc1nnc(-c2c[nH]c3ccccc23)o1)NC(=O)Nc1ccccc1F,15,7
Cc1ncc([N+](=O)[O-])n1CC(O)CCl (configuration not stated),0,2
Cc1nc2sc(C(=O)OCC(=O)c3cc(C)n(C)c3C)c(C)c2c(=O)[nH]1,22,9

Entries shown so far with a furan ring, fused or not (7):
SMILES,BmaI1,BmaI1 counterscreen
Cc1cc(C(=O)COc2ccc3oc4ccccc4c3c2)c(C)n1CC1CCCO1 (configuration not stated),6,-4
Cc1ccc(-c2cc(C(=O)Nc3cccc(C#N)c3)c3ccccc3n2)o1,12,8
CCOC(=O)c1c(C)oc2c1c(C=NC1CCS(=O)(=O)C1)c(O)c1ccccc12 (configuration not stated),8,13
O=C(/C=C/c1ccco1)OC(C(=O)Nc1ccc(F)cc1)c1ccccc1 (configuration not stated),30,8
CCc1oc2ccccc2c1/C=N/O,26,16
O=C(Cc1coc2cc3c(cc12)CCC3)N1CCc2ccccc21,8,16
CC(=O)Nc1ccc2c(CSc3nnc(-c4ccco4)n3C)cc(=O)oc2c1,9,-2

Continuation:
SMILES,BmaI1,BmaI1 counterscreen
CCOC(=O)/C(C#N)=c1\s/c(=C\c2ccc(OC)cc2)c(=O)n1CC,8,10
Cc1ccc2nc(CSc3nc4ccccc4c(=O)[nH]3)cc(=O)n2c1,10,13
CCOC(=O)c1oc2ccccc2c1Cn1nnc(-c2ccccc2)n1,26,18
CCc1noc(C)c1C(=O)OCC(=O)NC12CC3CC(CC(C3)C1)C2,-1,-8
COc1ccc(C(N)CC(=O)OC(C)C)cc1 (configuration not stated),1,-6
Oc1ccccc1/C=N/N1CCCCC1,26,-6
Cc1cc(SC(C)C(=O)NC(N)=O)nc2ccccc12 (configuration not stated),0,-8
COc1ccc2nc(SCC(=O)c3cc4c5c(c3)CC(=O)N5CCC4)[nH]c2c1,19,6
Cc1ccc2nc(CN3NS(=O)(=O)c4ccccc4C3=O)cn2c1,14,10
NN1C(=O)c2cccc3cccc(c23)C1=O,13,4
O=C(CSc1n[nH]c(=O)[nH]c1=O)N1CCCCCC1,6,2
Brc1cccc(OCc2nnc3n2CCC3)c1,4,12
OCCOCCN1CCN(C2=Nc3ccccc3Sc3ccccc32)CC1,5,8
CN1CCC(N(C)C(=O)CNC(=O)c2ccc(Oc3ccccc3)cc2)CC1,-7,-4
N#Cc1ccccc1NC(=O)CSc1nc(-c2ccccc2)c(-c2ccccc2)o1,20,20
CCOc1ccc(OCCOc2ccc(CN3CCN(CC(=O)N(C)C)CC3)cc2OCC)cc1,16,10

Copied from the list:
CCOc1ccc(OCCOc2ccc(CN3CCN(CC(=O)N(C)C)CC3)cc2OCC)cc1 – BmaI1 counterscreen: 10
NN1C(=O)c2cccc3cccc(c23)C1=O – BmaI1: 13
CCOC(=O)/C(C#N)=c1\s/c(=C\c2ccc(OC)cc2)c(=O)n1CC – BmaI1: 8
O=C(Cc1coc2cc3c(cc12)CCC3)N1CCc2ccccc21 – BmaI1 counterscreen: 16

Carrying on:
SMILES,BmaI1,BmaI1 counterscreen
Cc1nn(C2CCS(=O)(=O)C2)c(Cl)c1/C=C/C(=O)OCC(=O)c1ccc(Cl)s1 (configuration not stated),14,17
O=C1NC(=O)C(=CN2CCC(Cc3ccccc3)CC2)C(=O)N1,16,-3
CCCCc1nc(Cl)c(CO)n1Cc1ccc(-c2ccccc2-c2nnn[nH]2)cc1,12,14
c1cnc(N2CCN(Cc3ccc4c(c3)OCO4)CC2)nc1,9,12
CCCN(Cc1nnc(-c2ccccc2Cl)o1)C(=O)c1cccc(S(=O)(=O)N(C)C)c1,20,6
O=c1[nH]cc(F)c(=O)[nH]1,4,22
COc1cccc2c1C(=O)c1c(O)c3c(c(O)c1C2=O)C[C@@](O)(C(=O)CO)C[C@@H]3O[C@H]1C[C@H](N)[C@H](O)[C@H](C)O1,49,-32
CON(C)S(=O)(=O)c1ccc(N=Cc2c(O)[nH]c(=O)[nH]c2=O)cc1,12,13
NCCc1ccc(OC(F)F)cc1,12,6
COc1ccc(N=c2scc(-c3ccc(O)c(C(N)=O)c3)n2CC2CCCO2)cc1 (configuration not stated),22,9
CCN(CC(=O)NC1CCS(=O)(=O)C1)C(=O)c1cc2ccccc2o1 (configuration not stated),6,4
CCOC(=O)Nc1ccc2c(COC(=O)c3cccc(OCc4c(C)noc4C)c3)cc(=O)oc2c1,-1,0
Nc1nc(CCC(=O)O)nc(Nc2ccccc2)n1,14,6
CCC(C(=O)Nc1ccc(C(=O)N(C)C)cc1)c1ccccc1 (configuration not stated),9,12
CC(C)N(c1ccccc1)c1ccc(NC(=O)c2ccccn2)cc1,5,4
O=C(COC(=O)C1CC(=O)N(CCc2ccccc2)C1)Nc1cccnc1Cl (configuration not stated),10,9
O[C@@H]1CCCC[C@H]1N1CCC(c2ccccc2)CC1,4,12
CCN(CC)S(=O)(=O)c1ccc(N(C)Cc2ccc(C(F)(F)F)cc2)nc1,6,7
c1csc(-c2noc(CSc3ccc4ccccc4c3)n2)c1,11,0
Cc1onc(-c2ccccc2Cl)c1C(=O)C(C#N)c1ccccn1 (configuration not stated),8,6
CC(C(=O)Nc1ccc2c(c1)OCO2)N1CCN(S(=O)(=O)c2ccc(Cl)s2)CC1 (configuration not stated),16,16
Nc1nc(-c2ccc(NC(=O)c3ccco3)cc2)cs1,32,28
Cc1ccc(NC(=O)COC(=O)C2(CC(=O)N3CCOCC3)CCCC2)cc1C,33,4
C=CCn1c(C)cc(C(=O)COC(=O)c2ccccc2O)c1C,24,15
O=C(Cc1c(F)cccc1Cl)Nc1ccc(N2CCOCC2)cc1N1CCOCC1,26,-7
CCOC(=O)c1cnc(SCC(=O)OCC(=O)N2CCc3ccccc32)nc1N,6,0
Oc1c(CN2CCCCCC2)cc(Cl)c2cccnc12,-24,-72
CC(C)Oc1ccc2c(=O)c(-c3ccccc3)coc2c1,-2,-2
O=C(COc1ccc(F)cc1)N/N=C1\CCS(=O)(=O)c2ccc(F)cc21,16,18
Cc1ccccc1CN1C(=O)C2CC=CCC2C1=O (configuration not stated),16,12
O=C(c1cnn(-c2ccccc2)n1)N(Cc1nc2ccccc2c(=O)[nH]1)CC1CCCO1 (configuration not stated),8,-1
C[C@]12CCC(=O)C[C@@H]1CC[C@@H]1[C@@H]2CC[C@@]2(C)[C@H]1CC[C@]2(C)O,8,8
C=CCN(CC(N)=O)S(=O)(=O)c1ccccc1C(F)(F)F,-2,2
Cc1nn(-c2ccc(Cl)cc2)c2sc(C(=O)O)cc12,24,12
CCCn1c(=O)n(Cc2ccc(Br)cc2)c2ccccc21,18,8
O=C(COc1cc2oc(=O)c3c(c2cc1Cl)CCC3)NCc1ccco1,13,4
CC(C)c1cc(NC(=O)CSc2nc3ccc(Cl)cc3[nH]2)on1,17,4
CNCC[C@H](Oc1cccc2ccccc12)c1cccs1,8&1,0&10
CONC1=CC(=O)c2ccccc21,13,8
CCCOc1ccc(C=Nc2ccc(N3CCN(CC)CC3)cc2)c(O)c1,63,-2
CCOC(=O)c1ccoc1COC(=O)c1ccc(C)c(C)c1,11,2
O=C1CCC(C(=O)NCCCn2ccc3ccccc32)=NN1,18,8
COc1ccc(C)cc1NC(=O)CCC(=O)c1ccc2c(c1)OCCCO2,10,8
CCOC(=O)N1CCN(Cn2c(=S)sc3ccccc32)CC1,73,54
CC(NC(=O)CSc1n[nH]c(=O)[nH]c1=O)C1CC2CCC1C2 (configuration not stated),6,4
Cn1nc(-c2ccc(Cl)cc2)cc1NC(=O)Cn1nnc(-c2ccccc2)n1,14,2
CC(C)(Oc1ccc(Cl)cc1)C(=O)N1CCN(c2ccc(C(F)(F)F)cn2)CC1,1,-6
CC(C)N(C(=O)NC(=O)Nc1ccc(C=C(C#N)C#N)cc1)S(C)(=O)=O,13,3
CCSc1nnc(-c2cccc(S(=O)(=O)N3CCOCC3)c2)n1C1CCCC1,14,7
Cn1cccc1C(=O)OCc1cc(=O)oc2cc(O)ccc12,10,22
COc1ccccc1/C=C(/C(=O)OCc1cc(C)on1)c1ccccc1,20,10
Cc1noc(C)c1COc1ccc2ccccc2c1Br,-14,9
Cc1noc(C)c1COc1ccc(CC(=O)NC2CCCCCC2)cc1,0,-4
Cn1nc(C(=O)NCCCN2CCN(CCCNC(=O)c3ccc(=O)n(C)n3)CC2)ccc1=O,34,3
Cc1nnc(SCC(=O)N(CC(C)C)C2CCS(=O)(=O)C2)s1 (configuration not stated),3,2
CC1=C(C(=O)O)N2C(=O)[C@@H](NC(=O)[C@H](N)c3ccccc3)[C@H]2SC1,-7,8

Arranged by count of non-hydrogen atoms (descending): some entries from above.
SMILES,BmaI1,BmaI1 counterscreen
Cn1nc(C(=O)NCCCN2CCN(CCCNC(=O)c3ccc(=O)n(C)n3)CC2)ccc1=O,34,3
CCSc1nnc(-c2cccc(S(=O)(=O)N3CCOCC3)c2)n1C1CCCC1,14,7
Cc1nnc(SCC(=O)N(CC(C)C)C2CCS(=O)(=O)C2)s1 (configuration not stated),3,2

The results go on:
SMILES,BmaI1,BmaI1 counterscreen
CCOC(=O)c1cc(OC(=O)c2ccc(Cl)nc2)cc(C(=O)OCC)c1,5,-1
CCN(CC)S(=O)(=O)c1ccc(S(=O)(=O)Nc2cc(Cl)ccc2OC)cc1,10,4
Cc1n[nH]c(=O)c2c(NC(=O)COC(=O)/C=C/c3ccc4c(c3)OCO4)oc(C)c12,80,46
O=C(CNC(=O)C12CC3CC(CC(C3)C1)C2)N1CCN(S(=O)(=O)c2ccc(Cl)cc2)CC1,-1,3
O=C(c1c(Cl)nc2sccn12)N1CCN(c2cccc(Cl)c2)CC1,6,11
O=C(CCCSc1nc2ccccc2s1)N1CCN(c2ncccn2)CC1,16,2
Cc1cccc(-c2n[nH]c(=S)n2CC(N)=O)c1,10,10
Cc1ccc(C(=O)OCC(=O)c2cc(C)n(CC3COc4ccccc4O3)c2C)s1 (configuration not stated),-1,-5
C=C1c2ccccc2NC(=S)N1Cc1ccc2c(c1)OCO2,45,6
Cc1ccsc1C=Nc1ccccc1N1CCCCC1,52,4
N#C/C=C(\c1ccc(F)cc1)N1CCOCC1,8,5
CC1CN(CC(=O)Nc2ccc3c(c2)CCC3)CC(C)O1 (configuration not stated),6,4
CNC(=O)NC(=O)CSc1cc(C)c2ccccc2n1,12,-2
O=C(NC1CCCC1)C1CCCN(C2=NS(=O)(=O)c3ccccc32)C1 (configuration not stated),12,-1
Cc1nc2scc(-c3cccs3)c2c(=O)n1CC(=O)OCC#N,12,8
Cc1nc2ccc(C(=O)OCC(=O)c3ccc4c(c3)OCCO4)cc2nc1C,10,6
COc1cc(C2NC(=O)C3C4=C(CCC4)SC3N2)ccc1OCC(=O)Nc1ccc(C)cc1 (configuration not stated),6,2
CC(C)c1ccc(CN(C)CC(O)COCc2ccc3c(c2)OCO3)cc1 (configuration not stated),7,5
C=CCn1cnnc1SCc1cc(F)ccc1OC,4,12
O=C(Cc1c(Cl)cccc1Cl)OCc1ccccn1,24,12
N/C(=N\c1nc2ccccc2o1)NC(=O)C(Sc1ccccc1)c1ccccc1 (configuration not stated),8,4
O=C(O)CNC(=O)c1ccc(NS(=O)(=O)c2ccc(Br)cc2)cc1,4,5
O=C1CCCC/C1=C/Nc1ccc(Cl)cn1,8,4
Cc1ccc(S(=O)(=O)N2CCN(C(=O)CSc3nnc(Cc4csc(C)n4)o3)CC2)cc1,14,4
